DUX4 txn inh = DUX4-mediated transcription inhibition; 293T-iDUX4 ZSCAN4-Gaussia luciferase reporter, 24 h; stronger effect = lower value; activity change, negative = inhibition, % (test concentration not listed); 37,000 compounds, 0.8% hits;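 active means -10% or lower and over 25 points stronger than a control reporter; inconclusive means -10% or lower with a smaller gap; inactive means above -10%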;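 further: 0% = median of neutral control wells and -100% = median of positive control wells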
DUX4 txn inh difference = recorded beside DUX4 txn inh, whose call it bears; Gaussia minus Italica difference, %; measured here: selective DUX4 reporter inhibition;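 worked out from the two reporters; negative = selective loss of the DUX4 reporter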
DUX4 txn inh control = also measured in DUX4 txn inh; calls as there; activity change, negative = inhibition, %; measured here: Italica tet-on control reporter;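 0 = neutral control and -100 = positive control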
* hit, by the source's call; ? = inconclusive; / = no result given. These rows are one share of the data (hit frequency here may not be typical).

Values run as follows: DUX4 txn inh, DUX4 txn inh difference, DUX4 txn inh control
> COc1cccc(-c2ccc3n(c2=O)C[C@H]2[C@H](CO)[C@@H](C(=O)N(C)C)[C@@H]3N2Cc2cncnc2)c1
    2.2, 1.8, 0.4
> C[C@@H]1CN([C@H](C)CO)C(=O)Cc2cc(NS(=O)(=O)c3ccccc3)ccc2O[C@H]1CN(C)Cc1ccc(C(=O)O)cc1
    2.5, 2.3, 0.1
> CN1c2ccc(-c3ccccc3)cc2[C@H]2[C@H](CCN2S(=O)(=O)c2ccccc2F)[C@@H]1CO
    ?, /, /
> C[C@@H]1CN([C@H](C)CO)S(=O)(=O)c2ccc(C#Cc3ccccn3)cc2O[C@H]1CN(C)Cc1cccc(F)c1
    2.0, -0.8, 2.7
> C[C@@H](NC(=O)C[C@@H]1C[C@H]2c3cc(NS(C)(=O)=O)ccc3O[C@H]2[C@H](CO)O1)c1ccccc1
    -1.5, -4.7, 3.2
> CO[C@H]1CN(C)C(=O)c2ccc(NC(=O)Nc3c(C)noc3C)cc2OC[C@@H](C)N(C)C[C@H]1C
    -0.7, 0.6, -1.3
> CO[C@@H]1CN(C)C(=O)c2cc(NC(=O)Nc3ccc(Cl)c(Cl)c3)ccc2OC[C@@H](C)NC[C@@H]1C
    ?, 0.1, 0.6
> C/C=C/c1ccc([C@H]2[C@H](CO)N(S(=O)(=O)Cc3ccccc3)C23CN(C(=O)C2CCOCC2)C3)cc1
    -2.8, 2.6, -5.4
> O=C(c1ccccn1)N1C[C@H]2[C@@H](c3ccccc31)[C@H](CO)N2C(=O)CC1CC1
    -1.8, -2.4, 0.6
> COc1ccc(NC(=O)Nc2ccc3c(c2)[C@H]2C[C@H](CC(=O)N4CCN(C)CC4)O[C@@H](CO)[C@H]2O3)cc1
    2.7, 2.0, 0.7
> N#C[C@@H]1[C@H](c2ccccc2-c2ccccc2F)[C@@H](CO)N1C(=O)c1ccccn1
    10.4, 10.2, 0.2
> OC[C@@H]1[C@@H](c2ccc(-c3cccnc3)cc2)[C@H]2CN(Cc3ccccn3)CCCCN12
    36.7, 29.5, 7.2
> N#C[C@@H]1[C@@H](c2ccc(-c3ccc(F)cc3)cc2)[C@H](CO)N1c1nc(-c2ccccc2)cs1
    5.3, 2.4, 2.9
> COCC(=O)N1CCCCN2[C@H](CO)[C@@H](c3ccc(C#Cc4ccccc4)cc3)[C@H]2C1
    -9.8, -4.9, -4.9
> COc1ccccc1S(=O)(=O)N1CC[C@@H]2[C@@H](CO)Nc3ccc(-c4ccc(C#N)cc4)cc3[C@@H]21
    ?, /, /
> C[C@@H]1CN([C@H](C)CO)C(=O)CCCn2nncc2CO[C@@H]1CN(C)S(=O)(=O)c1ccc(C#N)cc1
    2.9, 2.0, 0.9
> COc1ccc2c3c([nH]c2c1)[C@H](CO)N(C(=O)NC(C)C)CC31CCN(C(=O)c2cnccn2)CC1
    10.4, 5.2, 5.3
> CNC[C@@H]1OCCCC[C@@H](C)Oc2ccc(NC(=O)C3CCCCC3)cc2C(=O)N([C@H](C)CO)C[C@@H]1C
    2.1, 0.3, 1.8
> CCCNC(=O)[C@@H]1[C@@H](CO)[C@@H]2Cn3c(cccc3=O)[C@H]1N2Cc1cccc(Cl)c1
    5.7, 6.0, -0.3
> O=C(c1cccnc1)N1CC(=O)N2[C@H](CO)[C@H](c3ccc(-c4ccccc4F)cc3)[C@@H]2C1
    4.5, 3.0, 1.5
> COc1ccc2c3c(n(C)c2c1)[C@@H](CO)N(C)CC31CN(S(=O)(=O)c2cccc(C)c2)C1
    -9.1, -4.0, -5.1
> N#C[C@H]1[C@H](c2ccccc2C2=CCCC2)[C@@H](CO)N1C(=O)CN1CCOCC1
    5.9, 2.4, 3.5
> C[C@H]1CN([C@@H](C)CO)C(=O)CCCn2cc(nn2)CO[C@@H]1CN(C)Cc1ccc(C(F)(F)F)cc1
    -4.3, -2.8, -1.6
> COc1ccc2c3c([nH]c2c1)[C@H](CO)N(C(=O)c1ccncc1)CC31CN(C(=O)C2CCC2)C1
    23.4, 10.2, 13.2
> COCC(=O)N1CC2(CCN(Cc3cccnc3)CC2)c2c(n(C)c3cc(OC)ccc23)[C@H]1CO
    27.0, -3.0, 30.0
> Cc1ccccc1-c1ccc(C2[C@@H]3CN(C(=O)C4CCCCC4)C[C@H]2N3)cc1 (some centres not stated)
    ?, -6.1, -0.4
> C[C@@H]1CN([C@@H](C)CO)C(=O)c2cc(NC(=O)CCCN(C)C)ccc2O[C@H]1CN(C)Cc1ccc(Cl)c(Cl)c1
    -1.4, -3.2, 1.8
> Cc1ccc(-c2ccc([C@@H]3[C@@H](CO)N4C(=O)CN(C(=O)c5ccncc5)C[C@H]34)cc2)cc1
    5.9, 5.2, 0.7
> O=S(=O)(NC[C@@H]1[C@@H](c2ccccc2)[C@@H](CO)N1CC1CC1)c1ccccc1
    -1.8, 2.3, -4.1
> O=C(NCc1ccccc1)[C@@H]1[C@@H](CO)[C@@H]2Cn3c(cccc3=O)[C@H]1N2C(=O)c1cnccn1
    -1.4, -7.0, 5.5
> CN(C)CC(=O)Nc1ccc2c(c1)[C@@H]1C[C@H](CC(=O)NCc3ccc4c(c3)OCO4)O[C@@H](CO)[C@@H]1O2
    3.2, 7.1, -3.9
> COc1cccc(C#Cc2ccc3c(c2)[C@@H]2[C@@H](CCN2C(C)=O)[C@@H](CO)N3)c1
    16.7, -0.8, 17.5
> C[C@@H]1CN([C@H](C)CO)C(=O)CCCn2nncc2CO[C@H]1CN(C)S(=O)(=O)c1ccc2c(c1)OCCCO2
    0.1, -0.7, 0.9
> CCC(=O)N1C[C@H](O)COC[C@@H]2O[C@H](CC(=O)N3CCCCC3)CC[C@H]21
    11.7, 5.7, 6.0
> CCCNC(=O)C[C@H]1CC[C@H]2[C@@H](COC[C@@H](O)CN2Cc2ccccc2F)O1
    9.6, 4.3, 5.3
> O=C(C[C@H]1C[C@H]2c3cc(NC(=O)NC4CCCCC4)ccc3O[C@H]2[C@@H](CO)O1)NCc1cccnc1
    -0.1, 5.3, -5.4
> COc1ccc2c3c([nH]c2c1)[C@@H](CO)N(C(C)=O)CC31CCN(C(=O)Nc2c(C)noc2C)CC1
    10.6, -2.1, 12.7
> COc1ccc(S(=O)(=O)N(C)C[C@@H]2Oc3cc(-c4ccccc4OC)ccc3S(=O)(=O)N([C@H](C)CO)C[C@@H]2C)cc1
    2.9, -0.6, 3.4
> C[C@H]1CN([C@@H](C)CO)C(=O)CCCn2nncc2CO[C@H]1CN(C)S(=O)(=O)c1ccccc1F
    1.9, 4.1, -2.3
> CCCN1[C@@H]2c3ccc(-c4ccccc4)c(=O)n3C[C@H]1[C@H](CO)[C@H]2C(=O)NCCCN1CCOCC1
    -6.8, -5.8, -1.1
> CCC(=O)N1[C@@H](CO)[C@@H](c2ccccc2)C12CN(C(=O)NC1CCCC1)C2
    -1.3, -7.0, 5.7
> COc1ccc(S(=O)(=O)Nc2ccc3c(c2)[C@@H]2C[C@H](CC(=O)NCC4CC4)O[C@H](CO)[C@@H]2O3)cc1
    6.2, 12.5, -6.3
> O=C(C[C@H]1CC[C@H](NC(=O)C2CCOCC2)[C@@H](CO)O1)NCC1CCCCC1
    13.9, 12.1, 1.7
> OC[C@H]1[C@H](c2ccc(-c3ccccc3F)cc2)[C@H]2CN(Cc3ccncc3)CCCCN21
    12.9, 1.8, 11.1
> N#C[C@H]1[C@H](c2ccccc2-c2ccccc2F)[C@H](CO)N1C(=O)C1CCOCC1
    9.9, 3.0, 6.9
> O=C(C[C@@H]1CC[C@H]2[C@@H](COC[C@H](O)CN2C(=O)C2CCCC2)O1)NCc1ccncc1
    8.2, -5.5, 13.7
> CNC[C@H]1OCCCC[C@H](C)Oc2ccc(NC(=O)Nc3ccc(OC)cc3)cc2C(=O)N([C@H](C)CO)C[C@@H]1C
    1.7, -0.9, 2.7
> CCCC#Cc1ccc([C@@H]2[C@H](CO)N3CCCCN(S(C)(=O)=O)C[C@@H]23)cc1
    2.5, -6.2, 8.7
> C[C@@H]1CCCCO[C@H](CN(C)Cc2ccc(Cl)c(Cl)c2)[C@@H](C)CN([C@@H](C)CO)C(=O)c2cc(NC(=O)Nc3ccc4c(c3)OCO4)ccc2O1
    -0.9, -5.4, 4.5
> C[C@@H]1CN([C@H](C)CO)C(=O)c2cc(N(C)C)ccc2O[C@@H](C)CCCCO[C@H]1CN(C)Cc1ccc2c(c1)OCO2
    3.0, 1.0, 2.1
> C[C@@H]1CN([C@@H](C)CO)C(=O)c2cc(NC(=O)Nc3ccccc3)ccc2O[C@@H](C)CCCCO[C@@H]1CN(C)C(=O)Nc1ccccc1
    5.3, 1.5, 3.8
> CN1c2ccc(C#Cc3cccnc3)cc2[C@H]2[C@H](CCN2S(=O)(=O)c2ccc(F)cc2)[C@H]1CO
    ?, /, /
> C[C@@H]1CN([C@@H](C)CO)S(=O)(=O)c2ccc(C3=CCCCC3)cc2O[C@H]1CN(C)C(=O)Cc1cccnc1
    -3.1, -1.3, -1.8
> CC(C)(C)[S@](=O)N1Cc2cc(C(=O)NCCc3ccncc3)nc(-c3cccc(-c4cccc(C#N)c4)c3)c2[C@@H]1CCO
    -1.4, 4.2, -5.6
> N#C[C@@H]1[C@@H](c2ccccc2-c2ccccc2F)[C@@H](CO)N1C(=O)Cc1ccccc1
    1.8, 2.6, -0.8
> O=C(NCC[C@H]1CC[C@H](NC(=O)C2CCOCC2)[C@@H](CO)O1)c1cc(Cl)cc(Cl)c1
    0.3, 2.5, -2.2
> COc1ccc2c3c([nH]c2c1)[C@@H](CO)N(C(=O)NC(C)C)CC31CCN(C(=O)c2cnccn2)CC1
    9.3, -0.1, 9.4
> CO[C@H](CN(C)S(=O)(=O)c1ccc(Cl)cc1)[C@H](C)CN(C(=O)Nc1ccccc1F)[C@H](C)CO
    -2.1, 2.2, -4.3
> CO[C@@H]1CN(C)C(=O)c2ccc(NS(=O)(=O)c3ccccc3)cc2OC[C@@H](C)N(C(=O)NC(C)C)C[C@@H]1C
    5.5, 8.5, -3.1
> Cc1noc(C)c1S(=O)(=O)Nc1ccc2c(c1)C(=O)N([C@@H](C)CO)C[C@@H](C)[C@H](CN(C)C(=O)CCC(F)(F)F)OCCCC[C@@H](C)O2
    0.7, -0.6, 1.4

Ordered by molecular weight (ascending): part of the list above
Values run as follows: DUX4 txn inh, DUX4 txn inh difference, DUX4 txn inh control
> OC[C@H]1[C@H](c2ccc(-c3ccccc3F)cc2)[C@H]2CN(Cc3ccncc3)CCCCN21
    12.9, 1.8, 11.1
> COc1ccc2c3c([nH]c2c1)[C@@H](CO)N(C(=O)NC(C)C)CC31CCN(C(=O)c2cnccn2)CC1
    9.3, -0.1, 9.4
> C[C@@H]1CN([C@H](C)CO)C(=O)c2cc(N(C)C)ccc2O[C@@H](C)CCCCO[C@H]1CN(C)Cc1ccc2c(c1)OCO2
    3.0, 1.0, 2.1

Further entries follow:
Values run as follows: DUX4 txn inh, DUX4 txn inh difference, DUX4 txn inh control
> COc1ccc2c3c([nH]c2c1)[C@H](CO)N(S(C)(=O)=O)CC31CCN(C(=O)Nc2ccccc2)CC1
    -2.5, -0.4, -2.1
> CCCNC(=O)C[C@H]1C[C@H]2c3cc(NS(=O)(=O)c4ccc(F)cc4)ccc3O[C@H]2[C@H](CO)O1
    9.7, 10.0, -0.3
> CNC(=O)C[C@H]1CC[C@H]2[C@@H](COc3ccc(NC(=O)C4CC4)cc3C(=O)N2C)O1
    0.3, 2.2, -1.9
> C[C@@H](C(=O)N(C)C[C@@H]1OCc2ccccc2-c2c(n(C)c3ccccc23)C(=O)N([C@@H](C)CO)C[C@@H]1C)c1ccccc1
    ?, /, /
> CN(C)CCCNC(=O)[C@@H]1[C@@H](CO)[C@@H]2Cn3c(ccc(-c4ccccc4)c3=O)[C@H]1N2C(=O)CC1CC1
    3.8, -0.8, 4.7
> C[C@H](NC(=O)N(C)C[C@@H]1OCc2ccccc2-c2ccccc2C(=O)N([C@H](C)CO)C[C@@H]1C)c1ccccc1
    -1.1, -1.5, 0.4
> O=C(c1ccncc1)N1C[C@H]2[C@@H](c3ccccc31)[C@H](CO)N2C(=O)Nc1ccc(F)cc1
    1.6, -2.7, 4.3
> C[C@H](NC(=O)[C@@H]1[C@@H](CO)[C@@H]2Cn3c(cccc3=O)[C@@H]2N1CC1CCCCC1)c1ccccc1
    -6.6, -2.5, -4.2
> OC[C@H]1Nc2ccc(-c3cccc(F)c3)cc2[C@H]2[C@@H]1CCN2Cc1ccc(F)cc1
    -31.6*, -32.0*, 0.4*
> CCCC#Cc1ccc([C@H]2[C@@H](CO)N3CCCCN(CC4CCOCC4)C[C@@H]23)cc1
    25.7, -10.5, 36.2
> CN1[C@@H]2c3ccc(-c4cccnc4)c(=O)n3C[C@H]1[C@H](CO)[C@H]2C(=O)N1CCC(Cc2ccccc2)CC1
    -3.2, -1.4, -1.8
> CN(C)CC(=O)N1[C@H](C#N)[C@H](c2ccccc2-c2ccccc2F)[C@H]1CO
    15.1, 3.5, 11.6
> COCC(=O)N1[C@H](CO)[C@H]2c3ccccc3N(C(=O)Nc3cc(F)ccc3F)C[C@H]21
    1.4, -4.2, 5.5
> C/C=C/c1ccc(C2[C@@H]3CN(Cc4cc(OC)cc(OC)c4)C[C@H]2N3)cc1 (some centres not stated)
    ?, /, /
> CO[C@H]1CN(C)C(=O)c2cc(NC(=O)c3ccccc3F)ccc2OC[C@@H](C)N(CC2CCOCC2)C[C@H]1C
    -0.1, -2.5, 2.3
> COc1cccc(C#Cc2ccc([C@H]3[C@H]4CN(C(=O)c5ccccc5)CC(=O)N4[C@H]3CO)cc2)c1
    ?, /, /
> CO[C@H]1CN(C)C(=O)c2ccc(NS(=O)(=O)c3ccc(C)cc3)cc2OC[C@@H](C)N(C)C[C@H]1C
    4.8, 0.5, 4.2

Entries of single compounds, quoted from the list. Order of screens: DUX4 txn inh | DUX4 txn inh difference | DUX4 txn inh control
`C[C@@H](C(=O)N(C)C[C@@H]1OCc2ccccc2-c2c(n(C)c3ccccc23)C(=O)N([C@@H](C)CO)C[C@@H]1C)c1ccccc1` is entered as ? | / | /
`C/C=C/c1ccc(C2[C@@H]3CN(Cc4cc(OC)cc(OC)c4)C[C@H]2N3)cc1` (some centres not stated) is entered as ? | / | /
